Assay outcomes from PubChem BioAssay.
B2AR ag: agonists of human beta-2 adrenergic receptor inducing internalization; response, % (test concentration not listed); P07550; AID 504454; hit rate 0.43% among 340,000; Am2.2-beta2AR cells, FAP receptor internalization, flow cytometry; reference of the scale not given here;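 active = response above a set limit, near 3 SD of response in nonfluorescent compounds, cut at about 42% in these data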;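 note: stock transfer was 100 nL into about 11 µL; a reference agonist was the positive control; negative values mostly stem from fluorescent compounds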
Target sequence (P07550 whole entry, looked up): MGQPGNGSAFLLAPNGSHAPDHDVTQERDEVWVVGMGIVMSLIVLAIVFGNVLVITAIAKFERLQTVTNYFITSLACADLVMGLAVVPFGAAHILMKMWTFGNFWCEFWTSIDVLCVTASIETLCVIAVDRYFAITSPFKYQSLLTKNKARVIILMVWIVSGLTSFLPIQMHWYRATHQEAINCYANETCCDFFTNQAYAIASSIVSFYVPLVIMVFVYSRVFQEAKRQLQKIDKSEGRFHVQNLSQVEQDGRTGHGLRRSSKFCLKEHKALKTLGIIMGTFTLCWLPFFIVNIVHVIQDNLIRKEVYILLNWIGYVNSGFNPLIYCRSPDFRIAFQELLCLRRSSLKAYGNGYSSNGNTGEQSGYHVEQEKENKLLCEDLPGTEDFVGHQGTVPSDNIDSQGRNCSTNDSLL
Ecoli growth: E. coli growth inhibition; Escherichia coli growth, OD600, 23 h; hits give low values; OD600 absorbance (test concentration not listed); hit rate 0.21% among 330,000; AID 1053175;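 active = OD600 absorbance below the run mean of sample wells minus 3.6 SD, in any replicate, cut at about 0.56 in these data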;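 note: stock transfer was 300 nL into about 60 µL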
HNF4A DNA FP: change in binding of human HNF4 alpha to DNA | P41235 | hit rate 0.3% among 360,000 | HNF4a-FITC DNA binding, fluorescence polarization, 1 h | activity change, % at 10 µM | AID 1224865; in the data active = activity change above about 30%, passing the limit was not always enough;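 note: controls were the assay level and a saturating level of protein; the project sought stronger binding though the title names inhibitors; some compounds called inactive have numbers as strong as hits; positive values seem to mean higher polarization but the record does not say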
FGF22 binding: binders of recombinant human FGF22 by thermal shift | calls only at 9.99 µM | hit rate 1.5% among 340,000 | Q9HCT0 | SYPRO orange fluorescence; percent of sucrose octasulfate shift, DMSO zero;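 active = melting point raised past a set limit in the mean and every replicate; three in four hits are not shown here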
Target sequence (Q9HCT0 whole entry, looked up): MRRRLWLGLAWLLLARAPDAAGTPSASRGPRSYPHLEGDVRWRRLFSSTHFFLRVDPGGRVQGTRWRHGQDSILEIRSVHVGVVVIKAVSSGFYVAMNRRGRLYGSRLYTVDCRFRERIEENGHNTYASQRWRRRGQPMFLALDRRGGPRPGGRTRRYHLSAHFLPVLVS
ALR inh: blocks human ALR sulfhydryl oxidase activity; purified ALR, DTT oxidation, H2O2 HRP-luminol luminescence; hit rate 3.8% among 290,000; AID 485317; inhibition, % (test concentration not listed);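 active = mean and each replicate at 75% or more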;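 note: stock transfer was 7.5 nL into about 7.5 µL; 0% = neutral wells and 100% = wells with inactivated enzyme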
rRNA inh HTS: selective bacterial rRNA inhibition in E. coli | E. coli WT GFP vs humanized-ribosome RFP mutants, fluorescence, 24 h; hits give low values; DMSO median 0, no signal -100 | GFP signal change (wild-type ribosome), % (concentration not given with the values) | hit rate 1.6% among 350,000;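 active = significant combined selectivity score with lowered wild-type GFP, culture density cut under 30%, mutant RFP and density less affected; inactive = any of these conditions unmet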; note: one replicate is shown; some compounds called inactive have numbers as strong as hits
UCH37 inh: blocks the human deubiquitinase UCH37. Q9Y5K5. purified proteasome/UCH37, Ub-AMC cleavage fluorescence. inhibition, % (concentration not given with the values). hit rate 0.33% among 330,000. AID 588478;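 active = mean of two replicates above 20%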;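 note: 0% = compound-free wells with enzyme and 100% = wells lacking proteasome; stock transfer was 100 nL into about 20 µL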
Target sequence (Q9Y5K5 whole entry, looked up): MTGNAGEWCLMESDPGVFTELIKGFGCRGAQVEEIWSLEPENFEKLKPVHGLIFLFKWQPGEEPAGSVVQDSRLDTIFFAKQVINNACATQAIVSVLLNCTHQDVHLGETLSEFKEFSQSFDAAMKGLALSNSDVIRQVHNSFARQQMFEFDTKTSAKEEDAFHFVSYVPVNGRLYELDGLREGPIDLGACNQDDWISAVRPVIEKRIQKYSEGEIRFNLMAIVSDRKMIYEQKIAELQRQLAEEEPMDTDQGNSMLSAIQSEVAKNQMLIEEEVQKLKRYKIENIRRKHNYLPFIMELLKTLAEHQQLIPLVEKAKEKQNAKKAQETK
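Material: human UCH37 enzyme supplied as purified proteasome complex / Amount: 0.15 nM proteasome as dispensed / Buffer or medium: pH 7.4 Tris-HCl (50 mM) with ovalbumin, ATP-MgCl2, DTT / Times: preincubation 30 min, reaction 25 min, room temperature / Technique: AMC fluorescence from Ub-AMC cleavage, excitation 355 nm, emission 460 nm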
rRNA inh HTS OD600: second read-out of rRNA inh HTS, no call of its own (marks repeat the call); OD600 change, %; measured here: OD600 growth;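 optical density of the mix in the first replicate; 0 = DMSO median and -100 = no signal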
rRNA inh HTS RFP: recorded beside rRNA inh HTS, whose call it bears; RFP signal change, %; measured here: RFP humanized mutant strains;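 first replicate; 0 = DMSO median and -100 = no signal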
Starred values were filed as active, the others as inactive; i = inactive; nt = no result given; & = joins results of further samples.

SMILES	B2AR ag	Ecoli growth	HNF4A DNA FP	FGF22 binding	ALR inh	rRNA inh HTS	rRNA inh HTS OD600	rRNA inh HTS RFP	UCH37 inh
CCCCc1nnc(NC(=O)CSc2nc(C)cc(=O)[nH]2)s1	-6.8	0.681	1.4	nt	nt	nt	nt	nt	2.2
COC(=O)c1ccc(CSC2=NC[C@@H]3[C@@H]4C(=O)N(Cc5ccccc5)C(=O)[C@@H]4[C@](C)(C(=O)OC)N23)cc1	6.0	0.684	-2.8	nt	nt	0.1	0.1	-4.2	-0.3
CN(C)S(=O)(=O)n1cc(/C=C(\NC(=O)c2ccccc2)C(=O)NCCN2CCOCC2)c2ccccc21	5.8	0.668	-1.2	i	2.8	-1.1	1.1	0.4	7.4
O=C(O)c1ccccc1C(=O)OCc1ccccc1	-5.2	0.705	-1.0	nt	-12.7	nt	nt	nt	5.5
COc1ccc(C(=O)N/C(=C\c2cn(S(=O)(=O)N(C)C)c3ccccc23)C(=O)NCCN2CCOCC2)cc1	-9.1	0.707	2.2	i	-3.6	-13.7	-13.2	-3.2	2.2
Cc1ccc(NC(=O)Nc2cc(C(F)(F)F)c[nH]c2=O)cc1	-16.8	0.704	3.1	i	-0.5	-2.0	3.4	-1.5	-0.3
O=C(CCS(=O)(=O)c1ccc2c(c1)NC(=O)CS2)NCc1ccccc1Cl	2.5	0.743	2.6	nt	-5.2	nt	nt	nt	-0.2
Nc1cc(-c2ccc(Br)cc2)nc2cc(-c3ccccc3)nn12	0.6	0.686	1.7	i	-12.8	-3.5	12.0	5.6	-82.6
O=C(CCc1ccc(O)cc1)NN=Cc1cc(Br)ccc1O	nt	nt	-0.8	i	nt	-37.7	-33.3	-8.1	nt
CCOc1ccc(-n2nnnc2SCC(=O)N2CCOCC2)cc1	-0.8	0.78	-1.2	nt	-2.2	nt	nt	nt	-2.7
O=C(NC(c1ccc(F)cc1)c1ccc2ccccc2n1)C1CCN(Cc2ccc3ccccc3n2)CC1 (stereo unspecified)	nt	nt	6.3	i	nt	-1.1	-16.0	28.4	nt
OC(CNCCNc1ncccc1C(F)(F)F)Cn1ccc2ccccc21 (stereo unspecified)	10.4	0.663	-1.7	i	-3.2	-6.2	-5.5	7.7	5.2
Cn1cnc(S(=O)(=O)NC2CCN(Cc3c(F)cccc3Cl)CC2)c1	-1.1	0.663	-3.2	i	2.5	-0.4	-3.2	4.2	1.3
Oc1ccc(NCc2cccs2)cc1	10.5	0.665	0.2	i	95.5*	8.0	10.3	11.9	-1.1
CC(C)c1ccc(NC2CCCN(C(=O)CCn3cnnn3)C2)cc1 (stereo unspecified)	5.8	0.69	0.8	i	67.4	4.8	7.9	-0.1	-0.8
CC(=O)N1N=C(c2cccc([N+](=O)[O-])c2)OC1(C)c1cccs1 (stereo unspecified)	-17.1	0.663	3.2	i	-11.4	-2.7	0.6	3.0	2.3
O=S(=O)(/N=C(/c1ccc(Cl)cc1)N1CCOCC1)c1ccc(Cl)cc1	-0.6	nt	0.5	nt	-4.3	nt	nt	nt	nt
CC1(c2nc3ccccc3[nH]2)CCC2=Nc3ccccc3CN21 (stereo unspecified)	nt	nt	-0.3	i	nt	15.8	11.2	3.8	nt
Cn1c(C(=O)OC(C(=O)NCc2ccco2)c2ccncc2)cc2sccc21 (stereo unspecified)	-8.8	0.724	-0.2	nt	-3.0	nt	nt	nt	2.1
O=C(COc1ccccc1)OCc1cc(-c2ccco2)on1	-1.3	0.656	0.2	i	1.2	3.7	8.6	-1.8	0.8
Cc1ccc(-n2nnc(-c3nccs3)n2)cc1	-11.3	0.657	0.8	i	nt	-10.0	-3.7	-26.4	3.8
CN1CCN(CC(=O)Nc2nc3c(s2)CCCC3)CC1	-1.1	0.623	-4.1	i	-10.6	15.2	13.5	-1.5	4.8
Cc1ccc(-c2nnc(-c3ccc(NC(=O)c4cccs4)cc3)o2)cc1	28.5	0.702	17.7	i	nt	7.6	7.4	-1.9	-152.8
Cc1cccc2cc3cccc(C)c3nc12	-4.0	nt	1.9	i	-24.6	10.8	12.3	-0.6	nt
O=C(NC(c1ccc(Cl)cc1)c1ccsc1)C1CCN(Cc2cccc(Cl)c2)CC1 (stereo unspecified)	nt	nt	-0.9	i	nt	-3.5	-29.3	20.4	nt
Cc1cc(C(=O)NNC(=S)NC(C)c2ccccc2)c2ccccc2n1 (stereo unspecified)	2.6	0.778	-0.4	nt	30.9	nt	nt	nt	-1.4
Cc1ccc(CNC(=O)C(=O)NCC2CCCN2S(=O)(=O)c2cc(C)ccc2C)cc1 (stereo unspecified)	-10.4	0.696	-2.8	i	4.9	3.8	-8.6	1.0	4.9
CCOC(=O)c1ccc(S(=O)(=O)N2CCN(C3CC(=O)N(c4ccccc4C(F)(F)F)C3=O)CC2)cc1 (stereo unspecified)	18.0	0.68	0.6	i	nt	-1.8	-8.9	-1.6	2.7
CN(C)CCCNc1nc(-c2ccccc2)c2c(c1C#N)CC(C)(C)OC2	-6.3	0.711	-0.4	i	nt	4.2	-1.7	3.7	-146.9
CC(C)(C)c1cnnn1-c1ccc(-c2csc(N)n2)cc1	3.2	0.659	1.6	i	-4.2	-4.8	12.8	3.1	1.5
Cc1cc(NC(=O)C2CC=CCC2C(=O)O)ccc1NC(=O)c1ccccc1 (stereo unspecified)	0.8	0.753	2.3	i	nt	9.9	8.7	0.3	-0.5
Cc1ccc(S(=O)(=O)CCC(=O)Nc2ccccc2Br)cc1	12.5	0.605	-2.8	i	-17.1	0.9	-0.6	-2.1	-0.2
COc1ccc(C2CC(c3ccccc3)=NN2C(=O)COC(=O)c2cccc(O)c2)cc1 (stereo unspecified)	4.5	0.714	-3.0	i	0.3	-7.6	2.5	1.3	2.3
C=CCn1c(P(C)(=O)O)nc2ccccc21	7.7&1.2	0.684&0.734	1.2&1.0	i	-5.8&-17.7	15.4	7.1	0.9	-2.7&0.8
CC(=O)N1CC(C(=O)Nc2ccc3c(c2)OCO3)Oc2ccccc21 (stereo unspecified)	1.7	nt	1.5	i	-32.0	-9.1	0.8	-3.4	nt
COc1ccc2nc3cc([N+](=O)[O-])ccc3c(NNc3ccc([N+](=O)[O-])cc3)c2c1	-2.0	nt	-2.5	i	nt	-18.5*	-1.0*	-6.7*	nt
COc1ccc(CC(=O)NCC2CCCCC2)cc1OC	-1.1	0.628	0.5	i	1.0	8.8	2.0	1.2	1.2
OC(COc1ccccc1CNCc1cccnc1)CN1CCc2ccccc2C1 (stereo unspecified)	-4.4	nt	5.3	i	-12.2	1.6	-1.5	-5.6	nt
COc1ccc(CNc2nc3c(c(=O)[nH]c(=O)n3C)n2CCCc2ccccc2)cc1	-3.9	0.716	0.0	nt	-6.7	8.0	6.4	0.5	6.2
CCOC(=O)C1CCCN(C(=O)COc2ccc(S(=O)(=O)N(CC)c3ccccc3)cc2)C1 (stereo unspecified)	2.0	0.712	0.2	i	nt	-13.3	-8.9	-2.5	0.5
Cn1c(N)c(C(=O)COC(=O)Cc2ccccc2F)c(=O)n(C)c1=O	-5.2	0.701	1.4	i	nt	3.0	-3.8	2.3	2.2
CCOC(=O)Cn1cnc(-c2ccc([N+](=O)[O-])cc2)c1	32.1	0.672	-1.3	nt	-30.3	nt	nt	nt	10.6
O=C(O)CCSc1nnc(-c2ccccc2)n1-c1ccccc1	2.8	0.705	2.5	nt	12.6	nt	nt	nt	0.6
CCCCNC(=O)CN1C(=O)NC2NC(=O)NC21 (stereo unspecified)	8.6	0.718	2.4	i	-15.0	8.6	1.6	-0.9	2.8
O=C(/C=C/c1cccc([N+](=O)[O-])c1)Nn1c(-c2ccccc2F)nc2ccccc2c1=O	-6.1	0.695	1.8	i	-3.2	-0.1	-2.3	0.5	5.8
CCC[N+](C)(C)C(C)C(OC(C)=O)c1ccccc1 (stereo unspecified)	-12.3	nt	-1.4	i	-4.0	7.4	14.6	3.2	nt
c1ccc(Oc2cccc(OCCCCN3CCCC3)c2)cc1	3.0	0.639	3.4	nt	-13.8	nt	nt	nt	3.4
Cc1cccc(OCCCC(=O)NC(C)c2ccccc2)c1 (stereo unspecified)	2.5	0.744	-1.5	nt	-2.6	nt	nt	nt	-0.7
O=C(OCCN1CCCCC1)C1(c2ccccc2)CCCC1	2.2	nt	2.0	i	nt	7.8	9.6	-0.3	nt
O=C(NCC1CCCO1)c1cccc(S(=O)(=O)NCc2ccccc2)c1 (stereo unspecified)	3.0	0.695	2.3	i	1.4	5.3	5.0	3.4	-0.5
COc1ccc(C(C(=O)NCc2ccccc2)N(Cc2cccnc2)C(=O)c2snc(C(N)=O)c2N)cc1OC (stereo unspecified)	-1.5	nt	3.2	nt	nt	10.3	5.5	1.7	nt
O=[n+]1cc(-c2ccc(Cl)cc2)n([O-])c2c1CCCCC2	-7.8	0.726	1.1	i	-113.9	0.1	-2.9	-1.7	3.0
COC(=O)/C(C#N)=C/c1c(Oc2cc(C)cc(C)c2)nc2ccccn2c1=O	20.6	0.628	6.6	i	-5.9	21.0	11.2	-1.0	1.0
COc1ccc(-c2cc(NC=O)c3ncc(-c4cccc(C(=O)NCCN(C)C)c4)n3c2)cc1	nt	nt	8.6	i	nt	0.2	-0.5	9.0	nt
O=C(N/N=C/c1cccs1)c1ccccn1	-3.6	nt	0.0	nt	-4.7	nt	nt	nt	nt
CC(=O)Nc1ccc(S(=O)(=O)N(C)CC(=O)OCC(=O)c2cc(C)n(-c3ccc4c(c3)OCO4)c2C)cc1	4.5	0.719	2.7	i	nt	-10.1	-10.1	-0.3	2.7
Cc1sc2nc(SCC(=O)Nc3ccc(S(=O)(=O)NCCCC(=O)O)cc3)[nH]c(=O)c2c1C	-2.2	0.657	1.9	i	-19.4	8.7	4.3	0.6	2.2
Cc1ccc(NC(=O)CCN2C(=O)c3ccccc3S2(=O)=O)cc1C	-7.3	0.696	-1.9	i	-2.7	-4.9	-3.4	-0.4	1.4
CC(C)C1C(=O)N(Cc2cn(CCC3OCCCO3)nn2)CCS(=O)(=O)N1Cc1ccc(-c2cccc(N(C)C)c2)cc1 (stereo unspecified)	nt	nt	4.7	i	nt	-7.0	4.4	1.9	nt
Fc1ccccc1/C=N/Nc1cc(N2CCCCC2)ncn1	-7.9	nt	1.2	i	-6.9	10.7	8.2	-0.6	nt
The listing continues:
SMILES	B2AR ag	Ecoli growth	HNF4A DNA FP	FGF22 binding	ALR inh	rRNA inh HTS	rRNA inh HTS OD600	rRNA inh HTS RFP	UCH37 inh
O=C(O)c1cccc(NC(=O)c2ccc(N3C(=O)c4ccc(C(=O)Nc5cccc(C(=O)O)c5)cc4C3=O)cc2)c1	1.3	0.675	-1.5	i	0.4	7.7	13.5	-0.9	8.5
CCOC(=O)C1CCN(C(=O)CSc2nnc(-c3ccco3)n2-c2ccccc2)CC1	8.9	0.766	-0.1	nt	-1.4	nt	nt	nt	-2.0
CCOC(=O)C1=C(CSc2nc3c(cc2C#N)CN(C)CC3)OC(N)=C(C#N)C1c1ccc(F)cc1 (stereo unspecified)	-2.6	0.764	3.2	nt	-8.6	nt	nt	nt	-21.6
Cc1cc(C)c(S(=O)(=O)NCc2csc(C)n2)c(C)c1	-1.7	0.715	1.1	i	-5.9	6.7	2.9	8.2	2.2
CSC1=NC2(CC(c3ccccc3)Oc3cc(O)ccc32)CC(C)(C)N1 (stereo unspecified)	15.4	0.743	-2.0	nt	5.3	nt	nt	nt	-9.5

Some of the compounds tested, so the mix of outcomes need not match the whole.
